D2 ag: Beta-Arrestin HTS for Positive Allosteric Modulators of the Human D2 Dopamine Receptor: Agonists; 0.084% of 360,000 active; DiscoveRx PathHunter D2 beta-arrestin, luminescence, 90 min; 100% = 57 uM dopamine signal; D(2) dopamine receptor (Homo sapiens), P14416; activation, % (no concentration beside the values); in the data active = activation above about 40%; inconclusive = about 15% to 40%; inactive = below about 15%; also: compound concentration not given in the record; the text of the record calls up to 30% inactive
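DiscoveRx PathHunter D2 beta-arrestin cells (2,100/well) attached overnight, then compound-stimulated 90 min at 37 C in HBSS/10 mM HEPES/0.1% Tween-20 buffer; beta-galactosidase complementation read by luminescence after 1 h at ambient temperature. Dopamine 57 uM final (EC100) as control.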
CtBP-E1A inh: qHTS Assay for Inhibitors of the CtBP/E1A Interaction | CtBP / adenovirus E1A interaction (AlphaScreen) | AlphaScreen GST-E1A/His-CtBP binding, 1536-well; stronger effect = lower value; control for the full effect not named in the record | activity change, % (concentration not given with the values) | 0.49% of 340,000 active; in the data active means activity change below about -65%; inconclusive means about -30% to -65%; inactive means above about -30%; also: % is scaled to controls: 0 for no effect and ±100 for the full control effect
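GST-E1A and His-tagged CtBP (125 nM each as 5X stock) were preincubated with pin-transferred compound for 2 h at 37 °C in the dark, then glutathione donor and nickel acceptor beads were added for 1 h before AlphaScreen reading.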
gsp antagonist: qHTS for Antagonists of gsp, the Etiologic Mutation Responsible for Fibrous Dysplasia/McCune-Albright Syndrome: qHTS; gsp-mutant cells, cAMP HTRF, 30 min; control for the full effect not named in the record; Potency, µM (titrated, usually from 76.9 µM), without a hit: at the highest dose activity change, negative = inhibition, most hits filed as inhibitors; 0.4% of 340,000 active; AID 624288, 2012; active = falling curve of any shape with a large fitted effect; inconclusive = falling curve, mostly with a smaller effect; inactive = flat or rising curve; cell line not stated here;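 also: intracellular cAMP measured with PDE inhibitor Ro 20-1724 present during compound exposure; potency is read from the fitted curve at half-maximal effect; % is scaled to controls: 0 for no effect and ±100 for the full control effect; nearly all actives have a fitted effect of over 65% in size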
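HTRF cAMP measurement after 30 min RT detection following 30 min, 37C compound treatment alongside […] (added as 300 uM solution) in G418-selected cells seeded at 2000/well and grown 16–24 h.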
D2 PAM: Beta-Arrestin HTS for Positive Allosteric Modulators of the Human D2 Dopamine Receptor: Potentiators; D(2) dopamine receptor (Homo sapiens), P14416; DiscoveRx D2 beta-arrestin cells, luminescence, 90 min; 100% = 57 uM dopamine signal; potentiation, % (test concentration not listed); 0.23% of 360,000 active; AID 624464, 2012; active = potentiation of 50% or more; inconclusive = 30% to 50%; inactive = 30% or less;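 also: compound concentration not given in the record; tested on top of an EC20 dose of dopamine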
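PathHunter beta-arrestin assay in DiscoveRx D2 cells. Compounds were added with an EC20 of dopamine (50 nM final) for 90 min at 37 deg C. Luminescence was read 1 h after detection reagent, with 57 uM dopamine as the EC100 control.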
Six1-Eya2 inh: qHTS Assay for Inhibitors of the Six1/Eya2 Interaction. 0.56% of 360,000 active. Homeobox protein SIX1 (Homo sapiens) + Protein phosphatase EYA2 (Homo sapiens), …. AlphaScreen GST-Six1/His-Eya2 binding, biochemical; stronger effect = lower value; control for the full effect not named in the record. AID 651725, 2012. activity change, % (test concentration not listed); in the data active = activity change below about -65%; inconclusive = about -30% to -65%; inactive = above about -30%; also: % is scaled to controls: 0 for no effect and ±100 for the full control effect; compound concentration not given in the record
Target sequence (O00167 whole entry, looked up): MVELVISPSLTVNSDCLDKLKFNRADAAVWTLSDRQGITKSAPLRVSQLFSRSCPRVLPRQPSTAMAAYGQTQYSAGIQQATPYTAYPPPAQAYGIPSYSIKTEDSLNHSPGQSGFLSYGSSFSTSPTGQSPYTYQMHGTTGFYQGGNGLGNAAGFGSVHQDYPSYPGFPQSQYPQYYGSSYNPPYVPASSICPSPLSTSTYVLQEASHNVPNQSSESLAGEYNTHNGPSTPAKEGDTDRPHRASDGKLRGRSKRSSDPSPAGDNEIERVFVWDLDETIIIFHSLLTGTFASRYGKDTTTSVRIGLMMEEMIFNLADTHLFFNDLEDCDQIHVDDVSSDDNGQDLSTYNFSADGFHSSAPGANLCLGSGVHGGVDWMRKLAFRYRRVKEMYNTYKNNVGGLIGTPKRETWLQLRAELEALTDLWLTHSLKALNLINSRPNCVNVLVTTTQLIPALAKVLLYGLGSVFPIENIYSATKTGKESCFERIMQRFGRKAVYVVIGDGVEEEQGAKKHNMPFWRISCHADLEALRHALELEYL
Target sequence (Q15475 whole entry, looked up): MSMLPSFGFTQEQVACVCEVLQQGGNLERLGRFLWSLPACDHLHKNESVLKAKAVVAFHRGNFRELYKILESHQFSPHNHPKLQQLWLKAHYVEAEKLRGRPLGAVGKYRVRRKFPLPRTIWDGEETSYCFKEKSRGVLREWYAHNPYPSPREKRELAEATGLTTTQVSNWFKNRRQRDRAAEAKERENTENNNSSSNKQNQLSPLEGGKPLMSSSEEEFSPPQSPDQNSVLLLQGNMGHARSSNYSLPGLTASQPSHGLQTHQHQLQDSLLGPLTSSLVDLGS
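Homogeneous AlphaScreen proximity assay pairing GST-Six1 with His-tagged Eya2 (added as 5X mix: 250 nM and 500 nM) in 50 mM Tris pH 8.0, 300 mM NaCl, 1 mM TCEP. Glutathione donor and nickel acceptor beads; 1 h, 37 °C, dark.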
gsp agonist: qHTS for Agonist of gsp, the Etiologic Mutation Responsible for Fibrous Dysplasia/McCune-Albright Syndrome: qHTS; gsp mutant cells, cAMP HTRF, 30 min; control for the full effect not named in the record; Potency, µM (top dose mostly 76.9 µM), for the others: at the highest dose activation (cAMP increase), most hits filed as activators; 0.13% of 340,000 active; AID 624287, 2012; active = well fitted activation curve with a large enough effect; inconclusive = small, poorly fitted or top-dose-only effect, or another doubt; inactive = no such curve, though single readings can be large or run the other way; cell line not stated here;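 also: phosphodiesterase inhibitor Ro 20-1724 added with compounds to block cAMP breakdown; potency is read from the fitted curve at half-maximal effect; nearly all actives have a fitted effect of over 60% in size; about a fifth of the inactives were tested at one dose only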
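Cells in DMEM/10% FBS with G418 were pretreated with compounds in DMSO plus […] (300 uM stock) for 30 min at 37C. cAMP was measured by HTRF (cAMP-d2 plus anti-cAMP antibody-K) after 30 min at room temperature.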
* hit, by the source's call; [ ] = another dose, or the depositor's remark.

For CCN(c1ccccc1)S(=O)(=O)c1ccc(OC)c(N=N/C(C(=O)Nc2ccccc2)=C(/C)O)c1 the results were D2 ag -4.2, CtBP-E1A inh 4, gsp antagonist 13%, D2 PAM -4, Six1-Eya2 inh 12 and gsp agonist 0%[15.4 µM].
For Cc1cc(C)n(-c2ccc(NC(=O)C3CCCCN3C(=O)c3sccc3C)cc2)n1 (configuration not stated) the results were D2 ag -2.0, CtBP-E1A inh -3, gsp antagonist -7%, D2 PAM -11, Six1-Eya2 inh 3 and gsp agonist -2%[15.4 µM].
COc1ccc2c(c1)CCc1cc(C(=O)O)sc1-2 was read as D2 ag -0.7, CtBP-E1A inh 2, gsp antagonist -16%, D2 PAM -4, Six1-Eya2 inh 0 and gsp agonist -23%.
O=C(NCC1CCCO1)c1ccccn1 (configuration not stated) was read as D2 ag -4.1, CtBP-E1A inh 2, gsp antagonist 4%, D2 PAM -2, Six1-Eya2 inh 7 and gsp agonist 7%.
`C=CCn1cnc2c(sc3nc(C)cc(C)c32)c1=O` gave D2 ag -3.0, gsp antagonist 6%, D2 PAM -13, Six1-Eya2 inh 2 and gsp agonist 28%.
Cc1ccc(OCC(=O)Oc2cccc(C)c2C)cc1 was read as D2 ag -2.2, gsp antagonist 4%, D2 PAM -11, Six1-Eya2 inh 11 and gsp agonist -13%.
`CCC(C)[C@@H](NC(=O)OC(C)(C)C)c1nnc(S(=O)(=O)Cc2cccc(C)c2)o1` (some centres not stated) gave D2 ag -4.2, CtBP-E1A inh 7, gsp antagonist 9%, D2 PAM -19, Six1-Eya2 inh 6 and gsp agonist 14%.
COc1ccc(S(=O)(=O)N2CCC(C(=O)Nc3ccccc3N3CCCCC3)CC2)cc1OC was read as D2 ag 3.6, CtBP-E1A inh 1, gsp antagonist -19%, D2 PAM -16, Six1-Eya2 inh 0 and gsp agonist -42%[inhibitor].
Screening CCCCN(CCCC)S(=O)(=O)c1ccc(NC(=O)c2cccs2)cc1 returned D2 ag -3.6, CtBP-E1A inh 10, gsp antagonist -8%, D2 PAM -5, Six1-Eya2 inh 1 and gsp agonist inconclusive.
`CCCn1c(SCC(=O)Nc2ccc(Cl)cn2)nnc1C1CC1` gave D2 ag 2.0, CtBP-E1A inh 0, gsp antagonist 0%, D2 PAM -7, Six1-Eya2 inh 8 and gsp agonist -79%[inhibitor].
Screening CCOC(=O)C(NC(=O)CCl)(Nc1sc(C)c(CC)c1C#N)C(F)(F)F (configuration not stated) returned D2 ag -2.3, CtBP-E1A inh -2, gsp antagonist 3%, D2 PAM -18, Six1-Eya2 inh 13 and gsp agonist 13%[15.4 µM].
Screening O=C(CN1C(=O)NC2(CCCC2)C1=O)N1CCN(S(=O)(=O)c2ccccc2[N+](=O)[O-])CC1 returned D2 ag 0.8, CtBP-E1A inh -9, gsp antagonist 10%, D2 PAM 0, Six1-Eya2 inh 4 and gsp agonist 0%.
Screening O=C(O)CC1C(=O)NCCN1CCCc1ccccc1 (configuration not stated) returned D2 ag -2.0, CtBP-E1A inh 5, gsp antagonist 6%, D2 PAM -6, Six1-Eya2 inh 0 and gsp agonist -41%[inhibitor].
`O=C1NC2(CCCCC2)CO1` gave D2 ag 0.0, CtBP-E1A inh 6, gsp antagonist 9%, D2 PAM -1 and Six1-Eya2 inh 8.
`CCc1ccc(NC(=O)Cn2cnc([N+](=O)[O-])c2)cc1` gave D2 ag 5.8, CtBP-E1A inh 6, gsp antagonist 4%, D2 PAM -2, Six1-Eya2 inh 2 and gsp agonist -5%.
O=c1c2c3nc4ccccc4nc3n(CCN3CCOCC3)c2ncn1CCN1CCOCC1 was read as D2 ag -3.1, CtBP-E1A inh -2, gsp antagonist 3%, D2 PAM -8, Six1-Eya2 inh -1 and gsp agonist inconclusive.
For O=C(NC1=NCCS1)c1ccccc1OCc1ccccc1Cl the results were D2 ag -18, CtBP-E1A inh -2, gsp antagonist -14%, D2 PAM -11, Six1-Eya2 inh 0 and gsp agonist 3%.
Screening CCC(C)(C)NC(=O)C(C(C)C)N(CC1CCCO1)C(=O)CNS(=O)(=O)c1ccccc1 (configuration not stated) returned D2 ag 2.2, CtBP-E1A inh -6, gsp antagonist -5%, D2 PAM -4, Six1-Eya2 inh -1 and gsp agonist 10%[15.4 µM].
COC(=O)c1cc(Cl)c(NC(=O)/C=C/c2ccc(OC)c(OC)c2)cc1OC was read as D2 ag 2.8, CtBP-E1A inh -7, gsp antagonist -7%, D2 PAM 9, Six1-Eya2 inh -3 and gsp agonist -1%.
`COc1ccc(N(C(=O)c2ccncc2)S(=O)(=O)c2ccc3c4c(cccc24)C(=O)N3C)cc1` gave D2 ag -4.6, CtBP-E1A inh -2, gsp antagonist 0%, D2 PAM -3, Six1-Eya2 inh -19 and gsp agonist -8%[15.4 µM].
`CCOC(=O)[C@H]1[C@H]2COc3ccc(Cl)cc3[C@@H]2N2C(=O)c3ccc(C)cc3NC(=O)[C@@]12C` gave D2 ag 0.9, gsp antagonist -2%, D2 PAM -6, Six1-Eya2 inh -3 and gsp agonist 0%.
O=C(CSc1nnc(NC(=O)Cc2ccccc2)s1)NCC1CCCO1 (configuration not stated) was read as D2 ag -1.0, CtBP-E1A inh 5, gsp antagonist 4%, D2 PAM 0, Six1-Eya2 inh 1 and gsp agonist 8%.
`O=C(CSc1nc2ccccc2c(=O)[nH]1)Nc1ccccc1O` gave D2 ag -1.8, CtBP-E1A inh -19, gsp antagonist -6%, D2 PAM -3, Six1-Eya2 inh -7 and gsp agonist -28%.
Screening Cc1oc2c(c(C)cc3oc(=O)c(CC(=O)NCCCN4CCCC4=O)c(C)c32)c1C returned D2 ag -2.5, CtBP-E1A inh 6, gsp antagonist -13%, D2 PAM -6 and Six1-Eya2 inh -4.
CCCCN(C(=O)c1ccc(OC)c([N+](=O)[O-])c1)c1c(N)n(CCC)c(=O)[nH]c1=O was read as D2 ag -3.9, CtBP-E1A inh 1, gsp antagonist -4%, D2 PAM -4, Six1-Eya2 inh 12 and gsp agonist -47%[inhibitor].
For COc1ccc(NC(=O)Cn2c(=O)n(CC3CCCO3)c(=O)c3ccccc32)c(OC)c1 (configuration not stated) the results were D2 ag -3.2, CtBP-E1A inh -4, gsp antagonist -1%, D2 PAM -1, Six1-Eya2 inh -24 and gsp agonist -16%[15.4 µM].
For CN(Cc1ccco1)S(=O)(=O)c1cc(F)ccc1CN1C(=O)c2cccnc2C1=O the results were D2 ag -3.0, gsp antagonist 1%, D2 PAM 3, Six1-Eya2 inh -5 and gsp agonist inconclusive.
Screening CCN(C(=O)/C=C/c1cc(OC)c(OC)c(OC)c1)C1CCCCC1 returned D2 ag 13, CtBP-E1A inh -1, gsp antagonist -13%, D2 PAM -3, Six1-Eya2 inh -3 and gsp agonist 5%.
For Cc1cc(C)c2c(c1)[C@@H]1C=CC[C@@H]1[C@H](c1ccc(S(=O)(=O)N3CCOCC3)cc1)N2 the results were D2 ag -1.6, CtBP-E1A inh -6, gsp antagonist -2%, D2 PAM -5, Six1-Eya2 inh 1 and gsp agonist 0%.
For O=C1CSC(=S)N1c1cccnc1 the results were D2 ag 0.5, CtBP-E1A inh 3, gsp antagonist -1%, D2 PAM -3, Six1-Eya2 inh 3 and gsp agonist -17%.

2 entries drawn at random from the list so far, as already listed:
For CN(Cc1ccco1)S(=O)(=O)c1cc(F)ccc1CN1C(=O)c2cccnc2C1=O the results were D2 ag -3.0, gsp antagonist 1%, D2 PAM 3, Six1-Eya2 inh -5 and gsp agonist inconclusive.
`C=CCn1cnc2c(sc3nc(C)cc(C)c32)c1=O` gave D2 ag -3.0, gsp antagonist 6%, D2 PAM -13, Six1-Eya2 inh 2 and gsp agonist 28%.

(list continues)
Cc1ccc(CN2CCC(NC(=O)c3ccccc3)CC2)cc1 was read as D2 ag -0.7, CtBP-E1A inh 3, gsp antagonist 11%, D2 PAM -22, Six1-Eya2 inh 0 and gsp agonist 19%.
`C/C(=N\NC(=O)c1nnn(-c2nonc2N)c1C(C)C)c1cc(C)sc1C` gave D2 ag -0.9, CtBP-E1A inh 3, gsp antagonist -24%, D2 PAM -1, Six1-Eya2 inh 4 and gsp agonist 7%[15.4 µM].
O=S(=O)(c1ccccc1)N(CC(O)Cn1c2ccccc2c2ccccc21)c1ccccc1 (configuration not stated) was read as D2 ag 0.3, CtBP-E1A inh 0, gsp antagonist -1%, D2 PAM 18, Six1-Eya2 inh -4 and gsp agonist 11%.
`O=C1CCC(=O)N1c1ccc(S(=O)(=O)Nc2ccc(Br)cc2)cc1` gave D2 ag -0.2, CtBP-E1A inh -1, gsp antagonist 4%, D2 PAM -3, Six1-Eya2 inh -4 and gsp agonist -23%.
Screening C=CCOc1ccc(C2/C(=C(\O)c3ccc4c(c3)OCCO4)C(=O)C(=O)N2CCCN2CCOCC2)cc1 (configuration not stated) returned D2 ag 5.7, CtBP-E1A inh -15, gsp antagonist 10%, D2 PAM -13, Six1-Eya2 inh -1 and gsp agonist inconclusive.
`Cn1c(=O)c2c(ncn2CC(=O)N2CCN(S(=O)(=O)c3ccc(Cl)cc3)CC2)n(C)c1=O` gave D2 ag inconclusive, CtBP-E1A inh 11, gsp antagonist -4%, D2 PAM 3, Six1-Eya2 inh -1 and gsp agonist inconclusive.
`CC(C)Oc1cccc(C(=O)C2CCCN(C(=O)c3csnn3)C2)c1` (configuration not stated) gave D2 ag 1.2, CtBP-E1A inh 1, gsp antagonist -4%, D2 PAM -1, Six1-Eya2 inh 11 and gsp agonist -6%.
CSc1ncc(-c2ccccc2)cn1 was read as D2 ag -1.5, CtBP-E1A inh 3, gsp antagonist 3%, D2 PAM -3, Six1-Eya2 inh 6 and gsp agonist 8%.
Screening CCn1c(SCC(=O)c2cc(C)n(CC3CCCO3)c2C)nc2ccccc21 (configuration not stated) returned D2 ag 3.4, CtBP-E1A inh -10, gsp antagonist inconclusive, D2 PAM -13, Six1-Eya2 inh -7 and gsp agonist 10%.
Screening COCCn1nnnc1C(C(C)C)N1CCOCC1 (configuration not stated) returned D2 ag 0.9, CtBP-E1A inh 5, gsp antagonist 3%, D2 PAM 2, Six1-Eya2 inh 7 and gsp agonist -25%.
`CN(C)c1nc(SCc2ccccc2Cl)nc2c1CCCC2` gave D2 ag -2.0, CtBP-E1A inh 14, gsp antagonist inconclusive, D2 PAM -11, Six1-Eya2 inh 27 and gsp agonist 1%.
